MenB inh = M. tuberculosis MenB inhibitors, primary screen, biochemical, absorbance; 1,4-dihydroxy-2-naphthoyl-CoA synthase (Mycobacterium tuberculosis (strain ATCC 25618 / …; MenB enzyme assay, absorbance read-out; some hits fall short of the stated cut; inhibition, %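 (about 12 µg/mL by stock and volumes)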; hit rate 0.43% among 100,000; AID 540299, 2011;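 active = mean of two replicates above 30%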;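 also: 0% = no compound and 100% = wells with inactive enzyme; the first replicate is given; strong numbers were not always called active; inactives centre near -10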
Target sequence (P9WNP5 whole entry, looked up): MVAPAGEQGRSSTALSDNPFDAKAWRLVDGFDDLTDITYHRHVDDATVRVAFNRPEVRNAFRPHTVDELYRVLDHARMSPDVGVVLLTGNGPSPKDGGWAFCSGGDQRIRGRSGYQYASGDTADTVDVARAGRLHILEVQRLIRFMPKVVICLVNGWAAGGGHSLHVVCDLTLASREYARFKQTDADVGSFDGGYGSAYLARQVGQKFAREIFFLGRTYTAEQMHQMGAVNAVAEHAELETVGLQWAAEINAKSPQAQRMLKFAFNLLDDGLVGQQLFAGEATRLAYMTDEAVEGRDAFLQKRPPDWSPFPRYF
MbtI inh = MbtI salicylate synthase inhibitors, primary screen, biochemical, fluorescence intensity; P9WFX0; AID 493033, 2011; hit rate 0.89% among 100,000; purified MbtI enzyme, fluorescence intensity read-out; inhibition, %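 (about 17 µg/mL by stock and volumes)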;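 active = above 50% in both replicates, above 80% if mildly self-fluorescent; inactive = the rest, strongly fluorescent compounds included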;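 also: 0% = mean of negative and 100% = mean of positive controls; one replicate is shown; some compounds called inactive have numbers as strong as hits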
Polio RdRp inh = poliovirus RdRp elongation inhibitors, primary screen, biochemical, fluorescence polarization, total intensity; % elongation, % (compound at 16.7 µg/mL); hit rate 0.66% among 150,000; poliovirus polymerase elongation; stronger effect = lower value; in the data active = % elongation below about 90%; also: some results filed as inactive read as strong as hits
Target sequence (P03300 1749-2209 limits assumed): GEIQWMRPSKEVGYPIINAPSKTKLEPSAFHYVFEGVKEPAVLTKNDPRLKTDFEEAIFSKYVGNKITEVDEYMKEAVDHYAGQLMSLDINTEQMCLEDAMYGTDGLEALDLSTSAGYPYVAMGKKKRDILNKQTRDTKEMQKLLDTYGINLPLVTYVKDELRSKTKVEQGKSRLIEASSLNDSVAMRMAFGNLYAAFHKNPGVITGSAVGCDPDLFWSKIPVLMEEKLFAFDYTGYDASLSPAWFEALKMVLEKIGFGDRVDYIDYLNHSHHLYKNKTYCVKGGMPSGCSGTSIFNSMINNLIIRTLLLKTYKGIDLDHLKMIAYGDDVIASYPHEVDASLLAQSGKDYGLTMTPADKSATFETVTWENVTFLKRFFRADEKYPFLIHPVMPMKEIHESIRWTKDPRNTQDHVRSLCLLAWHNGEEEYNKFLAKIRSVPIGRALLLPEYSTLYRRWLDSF
Polio RdRp inh intensity = further read-out of Polio RdRp inh, marked with its call; % elongation; measured here: total intensity read-out; formula for this scale not given here;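 total fluorescence in place of polarization; lower means less elongation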
* hit, by the source's call.

What do the screens show for `Cc1ccc(CN(Cc2ccco2)C(=S)Nc2ccccc2C)cc1`?
MenB inh: -30; MbtI inh: -1; Polio RdRp inh: 101; Polio RdRp inh intensity: 101

What do the screens show for `CC(C)C(=O)Nc1c(C(N)=O)oc2ccccc12`?
MenB inh: 0; MbtI inh: -10; Polio RdRp inh: 99; Polio RdRp inh intensity: 108

What do the screens show for `O=C(COC(=O)c1ccc2c(c1)OCCO2)Nc1ccc(N2CCOCC2)cc1`?
MenB inh: 6; MbtI inh: 4; Polio RdRp inh: 104; Polio RdRp inh intensity: 104

How did N#C/C(=C\C=C\c1ccccc1)c1cccc(C(F)(F)F)c1 do in these assays?
MenB inh: -24; MbtI inh: 3; Polio RdRp inh: 102; Polio RdRp inh intensity: 107

How did CCSc1ccc2nnc(CCNC(=O)c3ccccc3)n2n1 do in these assays?
MenB inh: 16; MbtI inh: 1; Polio RdRp inh: 101; Polio RdRp inh intensity: 103

How did COC(=O)c1ccc(-n2cccn2)cc1 do in these assays?
MenB inh: -12; MbtI inh: -13; Polio RdRp inh: 104; Polio RdRp inh intensity: 102

How did CC(=O)O[C@@H]1CC(O[C@@H]2C(C)OC(O[C@@H]3C(C)OC(OC4CC[C@@]5(C)[C@H](CC[C@]6(C)[C@]5(C)C[C@@H](O)[C@]5(C)[C@@H](C7=CC(=O)OC7)CC[C@@]56O)C4)C[C@H]3O)C[C@H]2O)OC(C)[C@H]1OC1OC(CO)[C@@H](O)[C@@H](O)[C@@H]1O (stereo not given in full) do in these assays?
MenB inh: -8; MbtI inh: -7; Polio RdRp inh: 101; Polio RdRp inh intensity: 103

How did CSc1sc(C(=O)O)c2c1C(=O)CC(C)(C)C2 do in these assays?
MenB inh: -5; MbtI inh: 5; Polio RdRp inh: 102; Polio RdRp inh intensity: 101

How did N/C(CN1CCCC1=O)=N\O do in these assays?
MenB inh: -13; MbtI inh: -9; Polio RdRp inh: 102; Polio RdRp inh intensity: 102

How did CCN(CC)S(=O)(=O)c1cccc(C(=O)N[C@H](C(=O)Nc2ccc3c(c2)OCCO3)C(C)C)c1 do in these assays?
MenB inh: -24; MbtI inh: -2; Polio RdRp inh: 99; Polio RdRp inh intensity: 99

How did O=C1c2ccccc2C(=O)N2CC3(c4ccccc4)CN1CC(c1ccccc1)(C2)C3=O do in these assays?
MenB inh: 14; MbtI inh: -13; Polio RdRp inh: 101; Polio RdRp inh intensity: 103

Results for O=C(Nc1ccc(S(=O)(=O)N2CCCCC2)cc1)c1ccccn1 ?
MenB inh: -13; MbtI inh: -9; Polio RdRp inh: 104; Polio RdRp inh intensity: 102

What do the screens show for `CC(=O)N(c1ccc2oc(=O)sc2c1)S(=O)(=O)c1ccc(C)cc1`?
MenB inh: 12; MbtI inh: -1; Polio RdRp inh: 100; Polio RdRp inh intensity: 104

How did CC(=O)N1c2ccccc2C(=O)C1N1CCN(c2cc(C)ccc2C)CC1 (stereo not given) do in these assays?
MenB inh: -3; MbtI inh: 111; Polio RdRp inh: 100; Polio RdRp inh intensity: 104

How did O=C(Cn1c(C(=O)NCC2CCCO2)cc2sccc21)c1ccccc1 (stereo not given) do in these assays?
MenB inh: 8; MbtI inh: 3; Polio RdRp inh: 100; Polio RdRp inh intensity: 100

How did COc1ccccc1-c1noc(CCC(=O)N2CCC(c3c[nH]c4ccccc34)(c3c[nH]c4ccccc34)CC2)n1 do in these assays?
MenB inh: 14; MbtI inh: -10; Polio RdRp inh: 99; Polio RdRp inh intensity: 103

What do the screens show for `O=C(CCS(=O)(=O)Cc1ccccc1)Nc1nccs1`?
MenB inh: 8; MbtI inh: -13; Polio RdRp inh: 99; Polio RdRp inh intensity: 102

Results for COc1ccc(COCC(O)CN2CCCC(C)C2)cc1OC (stereo not given) ?
MenB inh: -33; MbtI inh: 2; Polio RdRp inh: 100; Polio RdRp inh intensity: 97

How did C#CC1(O)CC(C)(C)NC(C)(C)C1 do in these assays?
MenB inh: 5; MbtI inh: -6; Polio RdRp inh: 100; Polio RdRp inh intensity: 101

What do the screens show for `CCN(Cc1ccccc1)C(=O)C1CCN(Cc2cc(Br)c(O)c(OC)c2)CC1`?
MenB inh: -20; MbtI inh: 11; Polio RdRp inh: 104; Polio RdRp inh intensity: 102

A draw from above in order of count of non-hydrogen atoms, falling.
How did COc1ccccc1-c1noc(CCC(=O)N2CCC(c3c[nH]c4ccccc34)(c3c[nH]c4ccccc34)CC2)n1 do in these assays?
MenB inh: 14; MbtI inh: -10; Polio RdRp inh: 99; Polio RdRp inh intensity: 103

What do the screens show for `CC(=O)N(c1ccc2oc(=O)sc2c1)S(=O)(=O)c1ccc(C)cc1`?
MenB inh: 12; MbtI inh: -1; Polio RdRp inh: 100; Polio RdRp inh intensity: 104

How did C#CC1(O)CC(C)(C)NC(C)(C)C1 do in these assays?
MenB inh: 5; MbtI inh: -6; Polio RdRp inh: 100; Polio RdRp inh intensity: 101

In the list so far, these contain four or more nitrogen atoms.
How did CCSc1ccc2nnc(CCNC(=O)c3ccccc3)n2n1 do in these assays?
MenB inh: 16; MbtI inh: 1; Polio RdRp inh: 101; Polio RdRp inh intensity: 103

How did COc1ccccc1-c1noc(CCC(=O)N2CCC(c3c[nH]c4ccccc34)(c3c[nH]c4ccccc34)CC2)n1 do in these assays?
MenB inh: 14; MbtI inh: -10; Polio RdRp inh: 99; Polio RdRp inh intensity: 103

Remaining list, next part
What do the screens show for `CCN=c1scc(-c2ccccc2)n1/N=C/c1ccc(NC(C)=O)cc1`?
MenB inh: -37; MbtI inh: 0; Polio RdRp inh: 99; Polio RdRp inh intensity: 109

Results for N=c1c2cnn(-c3ccccc3)c2ncn1/N=C/c1ccc(Cl)cc1Cl ?
MenB inh: 15; MbtI inh: 5; Polio RdRp inh: 101; Polio RdRp inh intensity: 95

Results for O=C1/C(=C/c2ccc(-c3cccc(Cl)c3)o2)NC(=S)N1C1CCCCC1 ?
MenB inh: -8; MbtI inh: 11; Polio RdRp inh: 110; Polio RdRp inh intensity: 114

How did Cc1cccc(-n2c(O)c(C=Nc3ccccc3)c3ccccc3c2=O)n1 do in these assays?
MbtI inh: -6; Polio RdRp inh: 104; Polio RdRp inh intensity: 104

What do the screens show for `CS(=O)(=O)c1nc(S(=O)(=O)c2ccc(Cl)cc2)c(N2CCCC2)s1`?
MenB inh: -20; MbtI inh: -1; Polio RdRp inh: 99; Polio RdRp inh intensity: 99

How did O=C(CSC1=NCCN1)NC12CC3CC(CC(C3)C1)C2 do in these assays?
MbtI inh: 12; Polio RdRp inh: 103; Polio RdRp inh intensity: 102

What do the screens show for `c1ccc(C23CC4CN(CCN(C4)C2)C3)cc1`?
MenB inh: -42; MbtI inh: -13; Polio RdRp inh: 101; Polio RdRp inh intensity: 99

What do the screens show for `COC(=O)c1ccc(S(=O)(=O)N(Cc2ccccc2)Cc2ccccc2)n1C`?
MenB inh: 7; MbtI inh: -10; Polio RdRp inh: 103; Polio RdRp inh intensity: 110

What do the screens show for `CCC1(C)NC(=O)N(/N=C/C=C2\N(C)c3ccccc3C2(C)C)C1=O` (stereo not given)?
MenB inh: -14; MbtI inh: 19; Polio RdRp inh: 104; Polio RdRp inh intensity: 108

How did CCOC(=O)/C(C)=N/Nc1cc(C(F)(F)F)ccc1N1CCOCC1 do in these assays?
MenB inh: -6; MbtI inh: -5; Polio RdRp inh: 102; Polio RdRp inh intensity: 100

Results for O=C(/C=C/c1ccco1)N(c1ccccn1)c1ccccn1 ?
MbtI inh: 1; Polio RdRp inh: 101; Polio RdRp inh intensity: 106

How did CC(C)c1ccc(N2C(=O)Cc3c2nc(N)c2c(N)nc(N4CCCC4)c(C#N)c32)cc1 do in these assays?
MenB inh: -8; MbtI inh: -113; Polio RdRp inh: 102; Polio RdRp inh intensity: 109

Results for Cc1nnc2sc(-c3ccc(N)cc3)nn12 ?
MenB inh: -14; MbtI inh: 17; Polio RdRp inh: 102; Polio RdRp inh intensity: 101

How did COC(=O)c1c(C)sc2c(C(F)(F)F)cc(=O)[nH]c12 do in these assays?
MenB inh: 3; MbtI inh: inactive; Polio RdRp inh: 105; Polio RdRp inh intensity: 112

Results for CCC(Sc1nnc2c3ccccc3n(CC)c2n1)C(=O)Nc1ccccc1OC (stereo not given) ?
MenB inh: 3; MbtI inh: -1; Polio RdRp inh: 103; Polio RdRp inh intensity: 104

What do the screens show for `COc1ccc(OC)c(C2CC(=O)C3=C(C2)NC(=O)CC3c2cccc(O)c2)c1` (stereo not given)?
MenB inh: -14; MbtI inh: 4; Polio RdRp inh: 103; Polio RdRp inh intensity: 100

What do the screens show for `CCOC(=O)c1cnc(Nc2nc3ccccc3o2)nc1CSc1ccc(C)cc1`?
MenB inh: -15; MbtI inh: -4; Polio RdRp inh: 104; Polio RdRp inh intensity: 106

How did Cc1ccc2cc(CCNC(=O)c3ccc4c(c3)OCO4)c(=O)[nH]c2c1C do in these assays?
MenB inh: 3; MbtI inh: 4; Polio RdRp inh: 99; Polio RdRp inh intensity: 103

Results for N#CC(C(=O)c1cc2ccccc2o1)c1ccc2ccccc2n1 (stereo not given) ?
MbtI inh: -16; Polio RdRp inh: 103; Polio RdRp inh intensity: 104

What do the screens show for `Cc1ccc(C(=O)N/C(=C\C=C/c2ccccc2)C(=O)NCC2CCCO2)cc1` (stereo not given)?
MenB inh: 2; Polio RdRp inh: 105; Polio RdRp inh intensity: 106

Quoted from the listing for reference:
What do the screens show for `CCN(Cc1ccccc1)C(=O)C1CCN(Cc2cc(Br)c(O)c(OC)c2)CC1`?
MenB inh: -20; MbtI inh: 11; Polio RdRp inh: 104; Polio RdRp inh intensity: 102

What do the screens show for `CCN=c1scc(-c2ccccc2)n1/N=C/c1ccc(NC(C)=O)cc1`?
MenB inh: -37; MbtI inh: 0; Polio RdRp inh: 99; Polio RdRp inh intensity: 109

Results for N=c1c2cnn(-c3ccccc3)c2ncn1/N=C/c1ccc(Cl)cc1Cl ?
MenB inh: 15; MbtI inh: 5; Polio RdRp inh: 101; Polio RdRp inh intensity: 95

Other entries
What do the screens show for `Cc1ccc(CNCc2c(C(=O)O)c(C)n(Cc3ccccc3)c2C)cc1`?
MenB inh: 9; MbtI inh: 2; Polio RdRp inh: 100; Polio RdRp inh intensity: 103

What do the screens show for `COc1ccc(-c2csc(N(CC(C)C)C(=O)c3cccs3)n2)cc1`?
MenB inh: -8; MbtI inh: -19; Polio RdRp inh: 103; Polio RdRp inh intensity: 103

Results for CCOc1cc(CNc2ccc(N(CC)CC)cc2)ccc1OCC(=O)NC(C)(C)C ?
MenB inh: -4; MbtI inh: 28; Polio RdRp inh: 101; Polio RdRp inh intensity: 102

Results for O=C(CN1CCCCC1)N1CCc2ccccc21 ?
MenB inh: -24; MbtI inh: -6; Polio RdRp inh: 101; Polio RdRp inh intensity: 104

How did O=C(CCC(=O)NC1CC1)NNc1nc2ccccc2c2nc(-c3ccccc3)nn12 do in these assays?
MenB inh: 10; MbtI inh: -2; Polio RdRp inh: 101; Polio RdRp inh intensity: 96

How did O=C(COC(=O)/C=C/c1ccc(I)o1)NC1CC1 do in these assays?
MbtI inh: -11; Polio RdRp inh: 102; Polio RdRp inh intensity: 105

How did Cc1ccsc1/C=N/NC(=O)CO do in these assays?
MenB inh: 16; MbtI inh: 23; Polio RdRp inh: 101; Polio RdRp inh intensity: 103

How did CCCn1c(=O)c2sccc2n2c(CCCC(=O)N3CCC(C)CC3)nnc12 do in these assays?
MenB inh: 15; MbtI inh: 12; Polio RdRp inh: 100; Polio RdRp inh intensity: 97

What do the screens show for `Cc1ccc(CSc2nnc(-c3ccncc3)n2CC(C)C)cc1`?
MenB inh: -3; MbtI inh: 2; Polio RdRp inh: 101; Polio RdRp inh intensity: 103

What do the screens show for `CS(=O)(=O)N1CCCN2C(=O)c3ccccc3C21` (stereo not given)?
MenB inh: 10; MbtI inh: -5; Polio RdRp inh: 100; Polio RdRp inh intensity: 104

Results for Cc1c(/C=C/c2ccc(Cl)cc2Cl)c(=O)n(-c2ccccc2)n1C ?
MenB inh: -25; Polio RdRp inh: 104; Polio RdRp inh intensity: 112

How did COC(=O)c1cc(-c2ccccc2OC)nc2c1c(C)nn2CCC#N do in these assays?
MenB inh: -8; MbtI inh: 105; Polio RdRp inh: 104; Polio RdRp inh intensity: 102

How did Cc1cc(C(=O)O)ccc1-c1ccc(/C=C2\SC(=S)NC2=O)o1 do in these assays?
MenB inh: -100; MbtI inh: 92; Polio RdRp inh: 129; Polio RdRp inh intensity: 139

How did COc1cc(C(=O)Nc2cccc(-c3nc4cc(Cl)ccc4o3)c2C)cc(OC)c1OC do in these assays?
MenB inh: -33; MbtI inh: -115; Polio RdRp inh: 100; Polio RdRp inh intensity: 104

Results for O=C(COC(=O)c1ccccc1Cl)Nc1nccs1 ?
MenB inh: -83; MbtI inh: -6; Polio RdRp inh: 107; Polio RdRp inh intensity: 102

What do the screens show for `CN(C)S(=O)(=O)c1cccc(C(=O)O)c1`?
MenB inh: 4; MbtI inh: -8; Polio RdRp inh: 99; Polio RdRp inh intensity: 100

From PubChem
